CSC inhib = blocks cancer stem cells; hit rate 1.1% among 300,000; cancer stem cell-like cells viability, luminescence; inhibition, % at 7.5 µM; AID 2717;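 active means mean at 75% or more and at least half the replicates too; inconclusive means mean and replicates disagree; tested in HMLE shEcad cells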;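 further: 0% = median of negative and 100% = median of positive control wells; the first replicate is given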
PABP polyA inh = PABP-poly(A) binding inhibition; P11940; PABP-poly(A) RNA binding, fluorescence polarization; inhibition, % at 35 µM; hit rate 1% among 290,000;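 active means 50% or more with normal probe brightness, or confirmed in later tests; inconclusive means above 50% with abnormal brightness, or retests that disagree; inactive means below 50% or failed in later tests; about a fifth of its hits are not listed in these tables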;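 further: calls also rest on retests at 20 µM and on dose response follow-up; controls were probe without protein and protein plus probe with vehicle; some compounds called inactive have numbers as strong as hits; many hits fall short of the cut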
Target sequence (P11940 whole entry, looked up): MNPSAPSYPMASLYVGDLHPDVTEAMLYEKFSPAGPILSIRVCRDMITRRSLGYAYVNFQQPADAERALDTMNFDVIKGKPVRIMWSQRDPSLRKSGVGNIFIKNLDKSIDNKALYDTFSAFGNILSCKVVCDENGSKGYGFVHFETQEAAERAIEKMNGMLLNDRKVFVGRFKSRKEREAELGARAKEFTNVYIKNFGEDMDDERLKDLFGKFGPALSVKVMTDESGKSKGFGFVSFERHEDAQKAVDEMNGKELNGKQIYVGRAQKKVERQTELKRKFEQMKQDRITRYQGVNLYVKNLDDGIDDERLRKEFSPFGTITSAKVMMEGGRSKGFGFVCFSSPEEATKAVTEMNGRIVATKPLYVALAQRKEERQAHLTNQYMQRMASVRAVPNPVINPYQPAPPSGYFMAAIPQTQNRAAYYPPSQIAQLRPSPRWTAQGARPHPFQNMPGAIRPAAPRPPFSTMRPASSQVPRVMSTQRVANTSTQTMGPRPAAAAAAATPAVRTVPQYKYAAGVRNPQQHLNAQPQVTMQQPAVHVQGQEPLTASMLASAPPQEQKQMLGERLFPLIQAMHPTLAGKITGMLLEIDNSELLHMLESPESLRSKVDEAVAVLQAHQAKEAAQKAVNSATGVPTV
eIF4H FP inh = inhibitors of RNA binding by human eIF4H; eIF4H fluorescence polarization binding assay; Q15056; hit rate 0.94% among 290,000; inhibition, % at 35 µM; AID 2012;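 active means 50% or more with normal probe brightness, or confirmed in later tests; inconclusive means above 50% with abnormal brightness, or retests that disagree; inactive means below 50% or failed in later tests; about a fifth of its hits are not listed in these tables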;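 further: calls also rest on retests at 20 µM and on dose response follow-up; 0% = protein and probe with vehicle and 100% = probe without protein; strong numbers were not always called active; many hits fall short of the cut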
Rce1 inhib = inhibitors of yeast Ras-converting enzyme. Q03530. yeast membranes, quenched prenylated peptide cleavage fluorescence. calls only. hit rate 0.27% among 290,000. AID 2563;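 active means fall in fluorescence gain of 50% or more versus controls, with final raw signal at or below 3038400; inconclusive means same 50% fall but final raw signal above 3038400; inactive means fall in fluorescence gain under 50%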;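 further: plate controls were neutral control wells for no effect and wells lacking membranes for full effect; tested at 10 µM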
Env fusion inh = blocks HIV Env-driven cell-cell fusion | HeLa-JRFL Env/CEM21 cell fusion, luciferase | inhibition, % at 12.3 µM | hit rate 1.1% among 360,000;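 active means mean replicate inhibition score of at least 50 and every replicate individually at or above 50; inconclusive means only one of the two criteria met; inactive means mean below 50 and not all replicates reaching 50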;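 further: 0% = plate neutral controls and 100% = maraviroc near 300 nM; one replicate is shown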
MT1-MMP act inh = MT1-MMP (human) activation inhibition. P50281. HT1080 RFP-PRO-GFP cells, GFP/RFP ratio fluorescence, overnight; percent of plate control window, DMSO zero. GFP/RFP ratio change, % at 20 µM. hit rate 0.061% among 360,000;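 active means GFP/RFP ratio change of at least 30% with cell ATP level not reduced by more than half and red fluorescence within 50% of control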; further: strong numbers were not always called active
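Material: RFP-PRO-GFP reporter HT1080 cells. Dosing: single-point 20 µM compound, 1% DMSO. Controls: DMSO and RFP-L50D-GFP cell wells. Timing: cells overnight before dosing, compound overnight, 37 °C, 5% CO2. Measure: GFP/RFP fluorescence ratio.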
UUG fidelity = modulators of start codon recognition fidelity in yeast. S. cerevisiae UUG-firefly luciferase reporter, luminescence/redox ratio. AID 602363. hit rate 0.13% among 350,000. activity score, % at 18.7 µM;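 active means replicate mean at a twofold rise or more, about +100% in these data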;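 further: firefly luciferase made from a UUG start codon reports start codon fidelity; reporter light over untreated wells divided by growth signal over untreated wells; some hits fall short of that in this replicate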
eIF4H FP inh retest = further read-out of eIF4H FP inh, marked with its call; inhibition, %; compound at 20 µM; confirmation average;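 mean of two retest wells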
PABP polyA inh retest = recorded beside PABP polyA inh, whose call it bears; inhibition, %; compound at 20 µM; confirmation repeats;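 mean of two retest wells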
MT1-MMP act inh RFP = further read-out of MT1-MMP act inh, marked with its call; RFP signal change, %; measured here: RFP expression control read;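 0 = vehicle wells; hits needed this value within 50% of zero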
Active calls of the source: *; i = inactive; ? = inconclusive; · = no result given; & = joins results of further samples.

SMILES	CSC inhib	PABP polyA inh	eIF4H FP inh	Rce1 inhib	Env fusion inh	MT1-MMP act inh	MT1-MMP act inh RFP	UUG fidelity	others
Cc1ccc(N(C(=O)Cc2c[nH]c3ccccc23)C(C(=O)NC2CCCCC2)c2ccco2)cc1 (stereo not given)	-5	-15	-8	i	84*	4	-1	-18
COC(=O)c1c(NC(=O)CN2CCN(S(=O)(=O)c3ccccc3[N+](=O)[O-])CC2)sc2c1CCC(C)C2 (stereo not given)	-3	-7	1	i	10	-2	-1	-4
Cc1cccc(N=CC=C2OC(C)(C)C(C)(C)O2)c1	5	-9	-5	i	2	-1	-4	-16
Cc1ccc(NNC(=O)c2ccno2)cc1Cl	97*	-4	-8	i	1	3	0	-39
CC(C)CCNC(=O)Cc1ccccc1[N+](=O)[O-]	-2	-9	-8	i	-101	-1	3	-10
CCCOC(=O)CSc1nc(N)c(C#N)c(CC)c1C#N	-17	14	-4	i	21	-3	-4	-3
COc1ccccc1C(=O)NC(=O)COC(=O)c1ccc(C)o1	-4	·	·	i	-2	-2	2	-4
COc1ccc(-n2nnnc2-c2cnc3cc4c(cc3c2C)OCO4)cc1	-13	27	53	i	-6	6	-3	-9	eIF4H FP inh retest=-6;PABP polyA inh retest=4
CCOC(=O)C1=C(N)OC2=C(C(=O)CCC2)C1c1cccs1 (stereo not given)	-1	-9	-3	i	·	-5	2	-2
COC(=O)C1=C(C(=O)OC)C2(OC1c1ccc(Br)cc1)C(=O)c1ccccc1C2=O (stereo not given)	0	-8	-9	i	15	0	3	-2
O=C(CSc1nc2ccccc2[nH]1)N/N=C/c1ccco1	·	5	0	i	-8	3	4	-22
COc1ccc(OCc2nn3c(-c4ccccn4)nnc3s2)cc1	9	-5	-2	i	-31	-3	1	-21

Among those listed so far, these contain a carbonyl joined to an NH by a bond outside any ring:
SMILES	CSC inhib	PABP polyA inh	eIF4H FP inh	Rce1 inhib	Env fusion inh	MT1-MMP act inh	MT1-MMP act inh RFP	UUG fidelity	others
Cc1ccc(N(C(=O)Cc2c[nH]c3ccccc23)C(C(=O)NC2CCCCC2)c2ccco2)cc1 (stereo not given)	-5	-15	-8	i	84*	4	-1	-18
COC(=O)c1c(NC(=O)CN2CCN(S(=O)(=O)c3ccccc3[N+](=O)[O-])CC2)sc2c1CCC(C)C2 (stereo not given)	-3	-7	1	i	10	-2	-1	-4
Cc1ccc(NNC(=O)c2ccno2)cc1Cl	97*	-4	-8	i	1	3	0	-39
CC(C)CCNC(=O)Cc1ccccc1[N+](=O)[O-]	-2	-9	-8	i	-101	-1	3	-10
COc1ccccc1C(=O)NC(=O)COC(=O)c1ccc(C)o1	-4	·	·	i	-2	-2	2	-4
O=C(CSc1nc2ccccc2[nH]1)N/N=C/c1ccco1	·	5	0	i	-8	3	4	-22

Further entries follow.
SMILES	CSC inhib	PABP polyA inh	eIF4H FP inh	Rce1 inhib	Env fusion inh	MT1-MMP act inh	MT1-MMP act inh RFP	UUG fidelity	others
CCCC(NCC(O)COc1ccc(-c2ccccc2)cc1)c1ccccc1 (stereo not given)	·	-8	0	i	?	-5	-2	·
O=C(CN1C(=O)NC2(CCCC2)C1=O)Nc1cc(Cl)ccc1N1CCCCC1	·	-2	-16	i	-19	-2	0	-14
CCCCCCC[C@@H](C/C=C/CCC(=O)N(C)C/C(=C/Cl)C/C(=C\C(=O)N1CC(OC)=CC1=O)OC)OC	140*	·	·	·	-462	3	-24	12
CCC1(CC)NC(=O)N(CC(=O)OC(C)C(=O)Nc2ccc(NC(C)=O)cc2)C1=O (stereo not given)	-14	·	·	i	·	1	6	-12
COc1ccc(Sc2cnn(-c3ccccc3)c(=O)c2Cl)cc1	2	-5	3	i	·	-5	-9	-1
O=C(NCc1ccco1)c1c(F)cccc1Cl	-9	5	-14	i	-7	-3	2	-11
CC1CN(c2ncnc3c2c(-c2ccccc2)cn3-c2ccc(F)cc2)CC(C)O1 (stereo not given)	56	15	0	i	21	2	-7	·
COc1ccccc1C(=O)NC(=O)COC(=O)/C(=C/c1ccccc1)NC(C)=O	-10	2	1	i	·	-2	3	-12
O=C(Nc1ccc(F)cc1F)c1ccc(-n2cccn2)c([N+](=O)[O-])c1	2	-3	-3	i	5	-4	-3	·
O=C1C=C(c2cc3ccccc3s2)C[C@@H](c2ccc3c(c2)OCO3)C1	-11	·	·	·	-18	3	0	-21
Cc1ccc2nc(Nc3nc(-c4ccccc4)cc(=O)[nH]3)nc(C)c2c1	-6	-6	-18	i	·	-9	2	5
CN(C)CCNC(=O)C1CC(=O)N(c2ccc(F)c(Cl)c2)C1 (stereo not given)	-7	-3	0	i	·	5	5	-24
CC(C)N1CCN(Cc2nc3ccccc3s2)CC1CCO (stereo not given)	-17	1	-4	i	9	1	8	·
Oc1ccc(/C=N/Nc2cc(N3CCOCC3)nc(N3CCOCC3)n2)cc1O	29	5	31	i	0	8	2	·
O=C(CSC(=S)N1CCOCC1)Nc1nc(=O)c2ccccc2s1	16	65	4	i	·	·	·	·	eIF4H FP inh retest=36;PABP polyA inh retest=9
O=C(OCCCc1ccncc1)c1ccc(S(=O)(=O)N2CCOCC2)cc1	29	6	3	i	·	7	4	13
CC(C)(C)CC(=O)Nc1nnc(C(F)(F)F)s1	-1	12	-6	i	-48	-3	2	-23
COc1cc(C2Nc3ccccc3C(=O)N2NS(C)(=O)=O)ccc1O (stereo not given)	-4	4	-1	i	1	-8	-15	-25
O=C(O)CC(NCc1ccco1)C(=O)Nc1cccc(O)c1 (stereo not given)	-5	4	8	i	-5	0	1	1
O=C(COC(=O)CCc1ccc(S(=O)(=O)N2CCCCC2)cc1)Nc1cccc2ccccc12	-9	-1	-4	i	0	9	7	·
O=C(COC(=O)c1nc(Cl)ccc1Cl)NC1CCCCC1	-8	·	·	·	-7	-2	4	-16
COc1ccc(C2(c3ccc(OC)cc3)NC(=O)N(CC(=O)Nc3cc(C)ccc3OC)C2=O)cc1	·	-4	7	i	-7	1	-4	-3
COc1ccccc1NC(=O)C(=O)NCc1ccncc1	-11	3	11	i	9	-1	-2	·
CNCc1ccccc1Sc1cccc2ccccc12	9	-24	-6	i	·	1	-14	·
CCC(C)NC(=O)C(=O)NCc1ccncc1 (stereo not given)	1	4	6	i	·	-2	-1	-3
COc1ccc(C(=O)COC(=O)c2cnc(C)cn2)c(OC)c1	-1	·	·	i	·	-3	-3	-13
Cc1ccc2nc(NC(=O)CN3C(=O)NC4(CCCC4)C3=O)sc2c1	7	·	·	i	-39	1	-2	·
Cc1nc(N2CCOCC2)[nH]c(=O)c1C	-16	4	1	i	0	-3	1	0
CCOC(=O)c1c(C)oc2c1cc(O)c1ccccc12	-8	16	-2	i	·	3	0	·
O=C(N/N=C\c1cccnc1)C1c2ccccc2Oc2ccccc21	-2	-6	0	i	-10	6	0	·
CCOc1ccc(/C=C2\SC(=S)N(CCCC(=O)NCCCN3CCOCC3)C2=O)cc1	42	0	-10	·	?	2	-5	-41
O=C(Nc1cc(S(=O)(=O)N2CCCCC2)ccc1O)c1ccccc1NS(=O)(=O)c1ccc(F)cc1	44	-3	0	i	6&-3	23&2	-15&-3	-4
COc1ccc(Cc2n[nH]c(=O)c3ccccc23)cc1OC	-15	-9	-1	i	-107	1	0	14
Cc1ccc(CN2CCN(Cc3cccc(C)n3)CC2CCO)cc1 (stereo not given)	16	-5	14	i	17	2	5	·
COc1cccc(NC(=S)NNC(=O)c2ccccc2OC(F)F)c1	7	-2	3	i	-42	4	2	-12
CCCc1cc(=O)[nH]c(SCc2ccccc2)n1	-8	4	6	i	14	-1	3	-6
CCN(CC)C(=O)CSc1nc2cc3c(cc2c(=O)n1CCCC(=O)NCc1ccc(OC)cc1)OCO3	3	-1	-2	i	-26	-4	-1	12
O=C(COC(=O)c1ccco1)Nc1ccc(Cl)cn1	-19	·	·	·	-17	-6	1	·
CN(C(=O)C1CCN(c2ncnc3c2nc2n3CCCCC2)CC1)C1CCCCC1	-4	-5	-2	i	7	-1	-9	-15
O=C(Nc1c(-c2cccs2)nc2ccccn12)c1ccc2ccccc2c1	12	-16	-14	i	·	·	·	·
O=C(Nc1ccc(CN2CCOCC2)cc1)c1ccc(-c2ccc(Br)cc2)o1	6	-12	-8	i	·	14	-10	-22
COc1n[nH]c(C(=O)Nc2cc(Cl)ccc2Cl)c1[N+](=O)[O-]	27	4	15	i	-3	-1	-7	·
CCC(=O)Nc1ccc(Cl)c(NC(=O)c2cccnc2)c1	-11	-4	-6	i	5	-3	2	2
Cn1c(=O)c2cc(NC(=O)NCc3ccccc3)ccc2n1C/C=C/c1ccccc1	·	·	·	·	-12	5	-10	-5
Cc1cccc(NC(=O)[C@@H]2CCCN2C(=O)OC(C)(C)C)c1C	-15	-2	-8	i	-1	0	0	-17
CCOc1ccccc1Nc1nnc(SCC(=O)NC(Cc2c[nH]c3ccccc23)C(=O)O)s1 (stereo not given)	-14	31	-3	i	4	3	-3	·
O=C(CN1CCN(Cc2ccccc2)CC1)Nc1nc2ccccc2s1	1	-4	-7	i	-1	-1	3	-13
CC(=O)c1ccc(-c2ccc(-c3cc(=O)oc4c(C(C)C)ccc(C)c34)cc2)cc1	·	·	·	·	24	-6	-14	-15
CCN(CC)S(=O)(=O)c1ccc2oc(C(=O)N3CCCCCC3)c(C)c2c1	16	-3	7	i	-15	2	-3	-4
O=C(Oc1cc(=O)oc2ccccc12)c1cccnc1Cl	-5	11	-13	i	3	-2	-1	·

Six successive compounds from above, for reference:
SMILES	CSC inhib	PABP polyA inh	eIF4H FP inh	Rce1 inhib	Env fusion inh	MT1-MMP act inh	MT1-MMP act inh RFP	UUG fidelity	others
Cc1ccc(N(C(=O)Cc2c[nH]c3ccccc23)C(C(=O)NC2CCCCC2)c2ccco2)cc1 (stereo not given)	-5	-15	-8	i	84*	4	-1	-18
COC(=O)c1c(NC(=O)CN2CCN(S(=O)(=O)c3ccccc3[N+](=O)[O-])CC2)sc2c1CCC(C)C2 (stereo not given)	-3	-7	1	i	10	-2	-1	-4
Cc1cccc(N=CC=C2OC(C)(C)C(C)(C)O2)c1	5	-9	-5	i	2	-1	-4	-16
Cc1ccc(NNC(=O)c2ccno2)cc1Cl	97*	-4	-8	i	1	3	0	-39
CC(C)CCNC(=O)Cc1ccccc1[N+](=O)[O-]	-2	-9	-8	i	-101	-1	3	-10
CCCOC(=O)CSc1nc(N)c(C#N)c(CC)c1C#N	-17	14	-4	i	21	-3	-4	-3

Screens as filed in PubChem.
